Bioassay records: PubChem BioAssay, Broad Institute
DUX4 inh = inhibitors of DUX4-driven ZSCAN4 reporter expression, primary screen, 293T cells, Gaussia and Italica luciferase | AID 1224904, 2016 | actives 0.8% (n = 37,000) | 293T-iDUX4 ZSCAN4-Gaussia luciferase reporter, 24 h; active compounds read low | activity change, negative = inhibition, % (concentration not given with the values);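 active = -10% or lower and over 25 points stronger than a control reporter; inconclusive = -10% or lower with a smaller gap; inactive = above -10%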;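 also: 0% = median of neutral control wells and -100% = median of positive control wells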
DUX4 inh difference = recorded beside DUX4 inh, whose call it bears; Gaussia minus Italica difference, %; measured here: selective DUX4 reporter inhibition;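 worked out from the two reporters; negative = selective loss of the DUX4 reporter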
DUX4 inh control = recorded beside DUX4 inh, whose call it bears; activity change, negative = inhibition, %; measured here: Italica tet-on control reporter;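 0 = neutral control and -100 = positive control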
* marks the source's active call; other numbers are inactive results; u = inconclusive; x = not tested or not shown. A portion of the library (hit frequency here may not be typical).

Compound	DUX4 inh	DUX4 inh difference	DUX4 inh control
CC(C)NC(=O)N1[C@@H](CO)[C@@H](c2ccccc2)C12CN(C(=O)Cc1cccnc1)C2	16	9	6.1
COc1ccc2c3c(n(C)c2c1)[C@@H](CO)N(C(=O)c1ccc(F)cc1)CC31CN(C(=O)Nc2ccc(F)cc2)C1	-6	-1	-5.6
O=C1CN(S(=O)(=O)Cc2ccccc2)C[C@H]2[C@H](c3ccc(C#Cc4ccccc4)cc3)[C@H](CO)N12	u	x	x
CC(=O)N(C)C[C@@H]1[C@H](c2ccc(-c3cccnc3)cc2)[C@H](CO)N1C(=O)C1CC1	2	-1	2.8
O=C1[C@H](Cc2ccccc2)CCn2cc(nn2)COCC2CCCN12 (some centres not stated)	1	16	-15
CO[C@H]1CN(C)C(=O)c2ccc(NC(=O)c3nc4ccccc4s3)cc2OC[C@@H](C)N(Cc2cccnc2)C[C@H]1C	u	x	x
CN(C)CC(=O)N1CC[C@@H]2[C@H]1c1cc(Br)ccc1N(C)[C@H]2CO	9	1	8.3
CO[C@@H]1CN(C)C(=O)c2ccc(NC(=O)c3cnccn3)cc2OC[C@H](C)N(CC2CC2)C[C@H]1C	6	5	1.5
C[C@@H]1CN([C@@H](C)CO)C(=O)CCCn2cc(nn2)CO[C@H]1CN(C)Cc1ccccc1	-6	-9	3.4
C[C@@H](NC(=O)C[C@H]1CC[C@@H]2[C@H](COC[C@@H](O)CN2Cc2ccc(C(F)(F)F)cc2)O1)c1ccccc1	-6	-3	-2.4
C[C@H]1CN([C@@H](C)CO)C(=O)CCCn2cc(nn2)CO[C@@H]1CN(C)S(=O)(=O)c1ccc(C#N)cc1	-2	-8	6.0
COc1ccc(S(=O)(=O)N(C)C[C@H]2OCCCC[C@H](C)Oc3ccc(NC(=O)Cc4ccccc4)cc3C(=O)N([C@H](C)CO)C[C@H]2C)cc1	3	5	-1.2
C[C@H](NC(=O)[C@@H]1[C@@H](CO)[C@@H]2Cn3c(ccc(-c4ccccc4)c3=O)[C@@H]2N1C)c1ccccc1	8	12	-4.1
CC(=O)N1[C@@H](CO)[C@@H](c2ccc(C3=CCCC3)cc2)C12CN(C(=O)C1CC1)C2	3	-1	4.4
CCCNC(=O)N(C)C[C@@H]1Oc2ncc(C#CC3CCCCC3)cc2C(=O)N([C@@H](C)CO)C[C@H]1C	-2	-3	0.3
O=C(NCC[C@H]1CC[C@H](NC(=O)c2ccncc2)[C@H](CO)O1)Nc1ccc(Cl)cc1	-2	-13	10
COCC(=O)Nc1ccc2c(c1)[C@H]1C[C@@H](CC(=O)NCc3ccc(-c4ccccc4)cc3)O[C@@H](CO)[C@H]1O2	-5	-1	-4.6
COc1ccccc1NC(=O)N1CC(=O)N2[C@H](CO)[C@@H](c3ccc(C#CC(C)C)cc3)[C@@H]2C1	1	-3	4.0
CN1C(=O)c2cc(NC(=O)C3CCOCC3)ccc2OC[C@H]2O[C@@H](CC(=O)NCc3ccccc3F)CC[C@H]21	1	0	1.0
C[C@H]1CN([C@@H](C)CO)C(=O)c2cc(/C=C/c3ccccc3)cnc2O[C@@H]1CN(C)C(=O)c1ccc2c(c1)OCO2	0	-3	3.3

In another format: 6 of the compounds above
Every second line gives: DUX4 inh | DUX4 inh difference | DUX4 inh control
COc1ccc(S(=O)(=O)N(C)C[C@H]2OCCCC[C@H](C)Oc3ccc(NC(=O)Cc4ccccc4)cc3C(=O)N([C@H](C)CO)C[C@H]2C)cc1
 : 3 | 5 | -1.2
C[C@H](NC(=O)[C@@H]1[C@@H](CO)[C@@H]2Cn3c(ccc(-c4ccccc4)c3=O)[C@@H]2N1C)c1ccccc1
 : 8 | 12 | -4.1
CC(=O)N1[C@@H](CO)[C@@H](c2ccc(C3=CCCC3)cc2)C12CN(C(=O)C1CC1)C2
 : 3 | -1 | 4.4
CCCNC(=O)N(C)C[C@@H]1Oc2ncc(C#CC3CCCCC3)cc2C(=O)N([C@@H](C)CO)C[C@H]1C
 : -2 | -3 | 0.3
O=C(NCC[C@H]1CC[C@H](NC(=O)c2ccncc2)[C@H](CO)O1)Nc1ccc(Cl)cc1
 : -2 | -13 | 10
COCC(=O)Nc1ccc2c(c1)[C@H]1C[C@@H](CC(=O)NCc3ccc(-c4ccccc4)cc3)O[C@@H](CO)[C@H]1O2
 : -5 | -1 | -4.6

Two of the compounds above, with values under each structure.
Order of values – DUX4 inh	DUX4 inh difference	DUX4 inh control
> O=C1[C@H](Cc2ccccc2)CCn2cc(nn2)COCC2CCCN12 (some centres not stated)
  1	16	-15
> CO[C@H]1CN(C)C(=O)c2ccc(NC(=O)c3nc4ccccc4s3)cc2OC[C@@H](C)N(Cc2cccnc2)C[C@H]1C
  u	x	x

Next part:
Compound	DUX4 inh	DUX4 inh difference	DUX4 inh control
COCC(=O)N1CCC2(CC1)CN(S(C)(=O)=O)[C@@H](CO)c1[nH]c3cc(OC)ccc3c12	17	-9	26
Cc1noc(C)c1S(=O)(=O)N(C)C[C@H]1OCCCC[C@@H](C)Oc2ccc(N(C)C)cc2C(=O)N([C@H](C)CO)C[C@@H]1C	0	-1	0.3
CN1CCCCN2[C@H](C1)[C@H](c1ccc(-c3ccccc3)cc1)[C@@H]2CO	-3	-5	1.8
CCCN1[C@@H]2c3ccc(C4=CCCCC4)c(=O)n3C[C@@H]2[C@@H](CO)[C@@H]1C(=O)N(C)C	0	2	-2.1
O=C(NC1CCCC1)[C@H]1[C@H](CO)[C@H]2Cn3c(ccc(-c4cccc(F)c4)c3=O)[C@@H]1N2	2	-3	5.4
CCCN1[C@@H]2c3ccc(-c4ccccc4OC)c(=O)n3C[C@@H]2[C@@H](CO)[C@@H]1C(=O)N1CCCCC1	9	6	3.5
CCCNC(=O)C[C@H]1CC[C@@H]2[C@@H](COc3ccc(NS(=O)(=O)c4ccccc4C)cc3C(=O)N2C)O1	3	0	3.4
CC(=O)N1CCCCN2[C@H](C1)[C@H](c1ccc(C#Cc3ccccc3F)cc1)[C@@H]2CO	-7	-1	-6.4
COc1ccc2c3c([nH]c2c1)[C@H](CO)N(S(C)(=O)=O)CC31CN(C(=O)c2ccncc2)C1	19	3	15
COc1ccc2c3c(n(C)c2c1)[C@H](CO)N(C(=O)c1ccc(F)cc1)CC31CCN(CC2CC2)CC1	9	10	-0.7
CCNC(=O)C[C@@H]1CC[C@H]2[C@H](COc3ccc(NC(=O)c4ccc5c(c4)OCO5)cc3C(=O)N2C)O1	6	4	1.9
COc1cccc(C(=O)Nc2ccc3c(c2)OC[C@@H](C)N(C)C[C@@H](C)[C@@H](OC)CN(C)C3=O)c1	-2	-4	2.0
C[C@H](CO)N1C[C@H](C)[C@H](CN(C)Cc2cccc(C(F)(F)F)c2)Oc2ncc(-c3cc4ccccc4o3)cc2C1=O	-2	-8	6.2
CNC(=O)C[C@H]1CC[C@H]2[C@@H](COC[C@@H](O)CN2S(=O)(=O)c2ccccc2Cl)O1	-1	2	-2.8
CN1C(=O)c2cc(NC(=O)Nc3ccc(Cl)cc3)ccc2OC[C@H]2O[C@H](CC(=O)NCCN3CCCCC3)CC[C@H]21	0	-2	2.2
CN1CCN(C(=O)C[C@@H]2C=C[C@@H](NC(=O)Nc3ccccc3F)[C@@H](CO)O2)CC1	1	2	-1.1
COc1ccc(CN(C)C[C@@H]2OCCCC[C@@H](C)Oc3ccc(NC(=O)C4CCCCC4)cc3C(=O)N([C@H](C)CO)C[C@H]2C)cc1	-2	-1	-0.9
C[C@H]1CN([C@@H](C)CO)S(=O)(=O)c2ccc(Br)cc2O[C@@H]1CN(C)C(=O)CCN1CCCCC1	-2	-1	-1.4
CCCNC(=O)Nc1ccc2c(c1)C(=O)N(C)[C@H]1CC[C@@H](CC(=O)NC)O[C@@H]1CO2	4	-1	5.3
CC(C)[C@@H]1C(=O)N[C@@H](c2cccc(Cl)c2)CC=CC[C@H](C)Oc2ccccc2C(=O)N1C (mixture of isomers)	-3	-2	-0.7

(next part)
Compound	DUX4 inh	DUX4 inh difference	DUX4 inh control
CN(C)C(=O)c1ccc(-c2ccc([C@@H]3[C@@H](CO)N(S(C)(=O)=O)[C@H]3C#N)cc2)cc1	0	-3	2.4
C[C@@H]1CN([C@H](C)CO)C(=O)CCCn2nncc2CO[C@@H]1CN(C)S(=O)(=O)c1cn(C)cn1	1	6	-4.2
O=C(NCC1CC1)[C@H]1[C@H](CO)[C@H]2Cn3c(cccc3=O)[C@H]2N1C(=O)CC1CC1	4	9	-5.4
CN1[C@@H]2Cn3c(ccc(C4=CCCCC4)c3=O)[C@H]1[C@@H](C(=O)NCc1cccc(F)c1)[C@@H]2CO	-5	1	-5.3
O=C(c1ccccc1)N1CC[C@@H]2[C@H]1c1cc(C#Cc3cccc(F)c3)ccc1N[C@@H]2CO	-4	-13	9.6
N#C[C@H]1[C@@H](c2ccc(-c3ccccc3F)cc2)[C@@H](CO)N1C(=O)C1CCOCC1	4	4	0.3
N#C[C@H]1[C@H](c2ccccc2-c2ccc(F)cc2)[C@@H](CO)N1C(=O)NC1CCCCC1	u	x	x
CC(=O)N1CC[C@H]2[C@@H]1c1cc(-c3cccc(F)c3)ccc1N(C)[C@H]2CO	24	17	6.5
C[C@@H]1CN([C@H](C)CO)C(=O)c2ccccc2-c2ccccc2CO[C@@H]1CN(C)Cc1ccc(O)cc1	16	9	6.8
CCC(=O)N1CC2(C1)[C@@H](c1ccc(-c3ccccc3)cc1)[C@@H](CO)N2C(C)=O	0	2	-1.8
Cc1ccc(S(=O)(=O)N(C)C[C@H]2OCCCC[C@@H](C)Oc3ccc(NC(=O)c4ccncc4)cc3C(=O)N([C@@H](C)CO)C[C@H]2C)cc1	2	2	0.7
CN1C(=O)c2cc(NC(=O)Nc3ccccc3Cl)ccc2OC[C@@H]2O[C@H](CC(=O)NCCCN3CCOCC3)CC[C@@H]21	-3	-4	1.6
O=C(Nc1ccccc1F)N1CCCCN2[C@@H](CO)[C@H](c3ccc(C#Cc4cccnc4)cc3)[C@@H]2C1	5	4	0.3
C[C@@H]1CN([C@@H](C)CO)C(=O)c2c(c3ccccc3n2C)-c2ccccc2CO[C@@H]1CN(C)C(=O)CCC(F)(F)F	-3	-4	0.4
CC(=O)N1[C@@H]2Cn3c(cccc3=O)[C@H]1[C@@H](C(=O)NC1CCCC1)[C@@H]2CO	-2	-2	0.0
O=C(C[C@H]1CC[C@H]2[C@@H](COC[C@@H](O)CN2Cc2cccc(C(F)(F)F)c2)O1)NCCc1ccccc1	-6	3	-8.7
O=C(NCC1CC1)[C@@H]1[C@@H](CO)[C@@H]2Cn3c(ccc(-c4ccccc4)c3=O)[C@@H]2N1Cc1cocn1	0	3	-2.6
CCCN(C)C[C@H]1Oc2cc(/C=C/c3ccccc3)ccc2S(=O)(=O)N([C@H](C)CO)C[C@@H]1C	1	-2	3.0
CO[C@@H]1CN(C)C(=O)c2cccc(C#N)c2OCC[C@@H]2CC[C@@H](OC)[C@@H](CN(C)C(=O)[C@H]1C)O2	1	4	-2.8
O=C(c1cccc(F)c1)N1C[C@H]2[C@@H](c3ccccc31)[C@H](CO)N2C(=O)c1ccc(F)cc1	6	5	1.0

Next section:
Compound	DUX4 inh	DUX4 inh difference	DUX4 inh control
O=C(Nc1ccccc1)N1C[C@@H]2N[C@H](C1)C2c1ccc(-c2ccccc2)cc1 (some centres not stated)	u	0	4.5
COc1cccc(-c2ccc3c(c2)[C@H]2[C@H](CCN2S(=O)(=O)c2ccccc2F)[C@@H](CO)N3)c1	u	x	x
C[C@@H]1CCCCO[C@@H](CN(C)Cc2ccc(C(=O)O)cc2)[C@H](C)CN([C@@H](C)CO)C(=O)c2cc(NC(=O)NC3CCCCC3)ccc2O1	-3	-3	0.6
COc1cccc(S(=O)(=O)N2CCCCN3[C@@H](CO)[C@H](c4ccc(C#CC5CC5)cc4)[C@@H]3C2)c1	u	x	x
CCC(=O)N1CCCCN2[C@H](CO)[C@@H](c3ccc(C#Cc4ccccc4)cc3)[C@H]2C1	-10	0	-9.7
CNC[C@@H]1Oc2ncc(/C=C/c3ccccc3)cc2C(=O)N([C@H](C)CO)C[C@@H]1C	-4	-3	-0.4
COc1ccc(CN(C)C[C@H]2OCCCC[C@@H](C)Oc3ccc(NC(=O)C4CCCCC4)cc3C(=O)N([C@H](C)CO)C[C@@H]2C)cc1	1	-1	2.7
CCC(=O)Nc1ccc2c(c1)C(=O)N(C)[C@@H]1CC[C@@H](CC(=O)N[C@@H](C)c3ccccc3)O[C@@H]1CO2	-2	-7	5.1
COc1ccc2c3c(n(C)c2c1)[C@H](CO)NCC31CCN(Cc2ccc(-c3ccccn3)cc2)CC1	-4	51	-55
C[C@@H]1CC=CC[C@@H](c2ccc(F)cc2)NC(=O)[C@H](C)N(C)C(=O)c2ccccc2O1 (mixture of isomers)	2	7	-5.1
C/C=C/c1ccc2c(c1)O[C@H](CN(C)C(=O)c1cccc(F)c1)[C@@H](C)CN([C@H](C)CO)S2(=O)=O	0	-1	0.9
COc1ccccc1S(=O)(=O)N(C)C[C@H]1Oc2cc(C#CCC(C)C)ccc2S(=O)(=O)N([C@H](C)CO)C[C@@H]1C	1	-2	3.4
C[C@@H](NC(=O)C[C@H]1C[C@H]2c3cc(NC(=O)Nc4ccccc4F)ccc3O[C@H]2[C@H](CO)O1)c1ccccc1	u	x	x
